Screening results from PubChem BioAssay.
Rce1 inh: inhibitors of yeast Ras-converting enzyme; Q03530; yeast membranes, quenched prenylated peptide cleavage fluorescence; hit rate 0.27% among 290,000; AID 2563; calls only;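 active means fall in fluorescence gain of 50% or more versus controls, with final raw signal at or below 3038400; inconclusive means same 50% fall but final raw signal above 3038400; inactive means fall in fluorescence gain under 50%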;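 further: plate controls were neutral control wells for no effect and wells lacking membranes for full effect; tested at 10 µM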
Target sequence (Q03530 whole entry, looked up): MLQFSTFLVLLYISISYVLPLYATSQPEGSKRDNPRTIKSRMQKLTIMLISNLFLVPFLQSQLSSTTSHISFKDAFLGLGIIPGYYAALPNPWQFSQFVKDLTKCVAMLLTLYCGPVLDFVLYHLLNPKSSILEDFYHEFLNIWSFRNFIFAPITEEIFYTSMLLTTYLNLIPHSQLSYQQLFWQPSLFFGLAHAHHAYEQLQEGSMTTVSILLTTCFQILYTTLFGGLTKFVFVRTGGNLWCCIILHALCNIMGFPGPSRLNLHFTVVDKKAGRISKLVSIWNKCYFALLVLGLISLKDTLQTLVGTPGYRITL
UUG fidelity: yeast start codon fidelity modulation; S. cerevisiae UUG-firefly luciferase reporter, luminescence/redox ratio; activity score, % at 18.7 µM; hit rate 0.13% among 350,000; AID 602363;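 active means replicate mean at a twofold rise or more, about +100% in these data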;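 further: firefly luciferase made from a UUG start codon reports start codon fidelity; reporter light over untreated wells divided by growth signal over untreated wells; some hits fall short of that in this replicate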
eIF4H inh: inhibitors of RNA binding by human eIF4H. inhibition, % at 35 µM. eIF4H fluorescence polarization binding assay. Q15056. AID 2012. hit rate 0.94% among 290,000;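 active means 50% or more with normal probe brightness, or confirmed in later tests; inconclusive means above 50% with abnormal brightness, or retests that disagree; inactive means below 50% or failed in later tests; about a fifth of its hits are not listed in these tables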;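 further: calls also rest on retests at 20 µM and on dose response follow-up; 0% = protein and probe with vehicle and 100% = probe without protein; strong numbers were not always called active; many hits fall short of the cut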
MT1-MMP act inh: MT1-MMP (human) activation inhibition; HT1080 RFP-PRO-GFP cells, GFP/RFP ratio fluorescence, overnight; percent of plate control window, DMSO zero; hit rate 0.061% among 360,000; AID 651647; P50281; GFP/RFP ratio change, % at 20 µM;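 active means GFP/RFP ratio change of at least 30% with cell ATP level not reduced by more than half and red fluorescence within 50% of control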; further: strong numbers were not always called active
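Read-out: GFP/RFP fluorescence ratio; Test system: RFP-PRO-GFP reporter HT1080 cells; Compound dosing: single-point 20 µM compound, 1% DMSO; Times: overnight compound exposure at 37 °C.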
CSC inhib: cancer stem cell inhibition. hit rate 1.1% among 300,000. cancer stem cell-like cells viability, luminescence. AID 2717. inhibition, % at 7.5 µM;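 active means mean at 75% or more and at least half the replicates too; inconclusive means mean and replicates disagree; tested in HMLE shEcad cells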;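 further: 0% = median of negative and 100% = median of positive control wells; the first replicate is given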
Env fusion inh: inhibitors of HIV Env-mediated cell fusion; hit rate 1.1% among 360,000; HeLa-JRFL Env/CEM21 cell fusion, luciferase; AID 651610; inhibition, % at 12.3 µM;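 active means mean replicate inhibition score of at least 50 and every replicate individually at or above 50; inconclusive means only one of the two criteria met; inactive means mean below 50 and not all replicates reaching 50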;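 further: 0% = plate neutral controls and 100% = maraviroc near 300 nM; one replicate is shown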
PABP FP inh: blocks human PABP binding to poly(A) RNA; P11940; fluorescence polarization; inhibition, % at 35 µM; hit rate 1% among 290,000; AID 2014;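 active means 50% or more with normal probe brightness, or confirmed in later tests; inconclusive means above 50% with abnormal brightness, or retests that disagree; inactive means below 50% or failed in later tests; about a fifth of its hits are not listed in these tables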;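 further: calls also rest on retests at 20 µM and on dose response follow-up; controls were probe without protein and protein plus probe with vehicle; some compounds called inactive have numbers as strong as hits; many hits fall short of the cut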
Target sequence (P11940 whole entry, looked up): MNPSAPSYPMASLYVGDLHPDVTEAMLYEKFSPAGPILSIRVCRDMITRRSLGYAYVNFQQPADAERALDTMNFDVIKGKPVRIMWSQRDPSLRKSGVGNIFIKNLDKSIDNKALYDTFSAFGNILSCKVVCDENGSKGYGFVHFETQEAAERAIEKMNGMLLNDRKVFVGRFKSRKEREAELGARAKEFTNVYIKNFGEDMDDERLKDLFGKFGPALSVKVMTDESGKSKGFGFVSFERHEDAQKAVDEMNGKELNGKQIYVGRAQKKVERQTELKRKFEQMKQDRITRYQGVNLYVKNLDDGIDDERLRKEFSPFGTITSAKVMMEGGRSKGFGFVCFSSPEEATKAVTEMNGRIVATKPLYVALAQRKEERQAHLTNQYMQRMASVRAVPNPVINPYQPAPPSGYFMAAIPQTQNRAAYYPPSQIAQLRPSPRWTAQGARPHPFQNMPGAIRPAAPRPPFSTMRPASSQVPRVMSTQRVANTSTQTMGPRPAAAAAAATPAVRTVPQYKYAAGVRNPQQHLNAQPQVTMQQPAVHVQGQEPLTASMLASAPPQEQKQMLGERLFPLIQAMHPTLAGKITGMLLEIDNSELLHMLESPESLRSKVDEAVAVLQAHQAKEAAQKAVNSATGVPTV
eIF4H inh retest: second read-out of eIF4H inh, no call of its own (marks repeat the call); inhibition, %; compound at 20 µM; confirmation average;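 mean of two retest wells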
PABP FP inh retest: further read-out of PABP FP inh, marked with its call; inhibition, %; compound at 20 µM; confirmation repeats;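 mean of two retest wells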
MT1-MMP act inh RFP: recorded beside MT1-MMP act inh, whose call it bears; RFP signal change, %; measured here: RFP expression control read;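 0 = vehicle wells; hits needed this value within 50% of zero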
The depositor's hits bear a star; i = inactive; ? = inconclusive; / = not tested or not shown; & = joins results of further samples; [ ] = dose if it differs, or a comment.

SMILES	Rce1 inh	UUG fidelity	eIF4H inh	MT1-MMP act inh	MT1-MMP act inh RFP	CSC inhib	Env fusion inh	PABP FP inh	others
CCN(CC)CCNC(=O)c1ccc(NC(=O)c2ccc(C(=O)c3ccccc3)cc2)cc1	i	/	/	8	0	2	1	/
CC(=O)NS(=O)(=O)c1ccc(NC(=O)[C@@H]2CCCN2S(=O)(=O)c2ccc(Cl)cc2)cc1	/	-30	/	-2	1	4	/	/
COc1cc(C)c(CN2CCC(n3nccc3NC(=O)C3CC3)CC2)cc1C	i	-15	0	-1	0	-17	2	-1
CCOC(=O)C1=CCN(S(=O)(=O)c2ccccc2)C1c1ccc(Cl)cc1 (configuration not stated)	/	3	/	-2	-1	/	15	/
Cc1ccc(C(C)C)c(OCCNC(=O)c2cncc(Br)c2)c1	i	-4	-10	-6	-14	-2	/	-7
O=C(NCc1ccccc1F)C(=O)NCC1CCCN1S(=O)(=O)c1cccs1 (configuration not stated)	i	-16	/	-2	-1	-16	-8	/
C=CCn1c(=O)c2c(nc3n2CCN3c2cccc(Cl)c2C)n(C)c1=O	i	-2	-17	3	0	-10	4	-6
O=C(CCNC(=O)c1ccc([N+](=O)[O-])cc1)NNC(=O)c1ccccc1F	/	-17	/	1	0	/	14	/
CC(C)Oc1ccccc1/C=N/NC(=O)C1CC1	i	-21	/	-2	-2	-9	5	/
Cc1ccccc1CS(=O)(=O)Cc1ccc(C(=O)NCCCN2CCOCC2)o1	i	/	-1	3	7	-7	/	-8
O=C(CNc1ccccc1)N/N=C/c1ccc([N+](=O)[O-])o1	i	25	23	-10	-9	7	-1	13
COc1ccc(OCCNC(=O)C2(C)CCN2Cc2ccc(SC)cc2)cc1 (configuration not stated)	/	-16	/	-2	-4	/	36	/
CCN1CCN(c2nn3c(=O)c4ccccc4nc3c3ccccc23)CC1	i	-5	-5	2	4	-3	/	10
COc1ccc(CCNC(=O)CS(=O)Cc2nc(-c3ccccc3F)oc2C)cc1OC (configuration not stated)	i	/	-8	-3	-5	-6	4	3
Cc1nc2c(C)cccn2c1C(=O)N/N=C/c1ccccc1[N+](=O)[O-]	i	/	-6	1	-6	-6	14	5
CC(=O)/C(C#N)=C1\NC(=O)C(Cc2ccccc2)S1 (configuration not stated)	i	-17	5	-43	-1	-12	/	-9
CS(=O)(=O)c1ccc(-c2nnn(CC(=O)N3CCCCC3)n2)cc1	i	-9	8	-3	-1	-18	12	-3
COC(=O)COc1ccc(C(=O)Cn2c(NCCCO)nc3ccccc32)cc1	i	4	/	-1	3	-16	7	/
CC(=O)Nc1ccc(S(=O)(=O)N[C@@H](C)C(=O)OCc2cc([N+](=O)[O-])cc3c2OCOC3)cc1	i	-7	-2	2	-1	0	-16	-9
Cc1ccccc1CN1CCc2cc([N+](=O)[O-])ccc21	i	10	2	1	-13	3	-26	5
Cc1ccccc1C(=O)N1CCC(C(N)=O)CC1	i	1	4	-6	1	3	-23	3
O=C(/C=C/c1ccc(Cl)cc1)Nn1c(-c2cccs2)nc2ccccc2c1=O	i	/	2	-5	-5	-7	-4	1
CCC(C)NC(=O)Cn1cnc([N+](=O)[O-])c1 (configuration not stated)	i	/	-2	0	5	/	9	-7
CCN(Cc1cccs1)C(=O)c1cccc(S(=O)(=O)N2CCN(C)CC2)c1	/	-13	/	1	3	/	5	/
CCC(=O)N(C)CCc1cc2c(c(OC)c1/C=N/Nc1ccc(C(=O)O)cc1)OCO2	i	/	-1	1	0	6	4	-11

Next section.
SMILES	Rce1 inh	UUG fidelity	eIF4H inh	MT1-MMP act inh	MT1-MMP act inh RFP	CSC inhib	Env fusion inh	PABP FP inh	others
O=c1[nH]c(-c2ccccn2)cc2ccccc12	i	/	-10	5	0	3	-93	1
CCN1C[C@@H]2[C@@H]3C(=O)N(C)C(=O)[C@@H]3[C@](C)(C1=O)N2C(=O)c1ccc(Cl)c(Cl)c1	/	-6	/	-2	0	/	14	/
CCOc1ccc(NC(=O)C2=C(C)NC(=S)NC2c2ccc(O)c(OC)c2)cc1 (configuration not stated)	i	-8	-2	7	7	-12	/	-5
O=C(NCc1ccccc1)c1cc2ccc(O)cc2oc1=O	?	-5	-11	0	-2	3	-54	0
COc1ccc(CC(=O)O/N=C(\N)c2ccccn2)cc1OC	i	-20	-5	3	0	5	7	5
COC(=O)c1ccccc1NC(=O)NCc1c(C)nn(C)c1C	i	-21	-4	1	-5	-4	-8	8
CC(=O)c1ccc(NC(=S)N(CCCN(C)C)Cc2ccccc2)cc1	i	-27	-5	3	6	-14	-1	0
CCOC(=O)c1cc(NC(=O)Nc2ccc(Br)cc2)c(C)nc1C	i	/	-4	-7	3	20	8	-1
Cc1coc(=N)n1CC(=O)c1ccc(Cl)cc1	/	/	0	-2	-1	/	1	2
CCN(CC)CCn1c(N)nc2ccccc21	i	-30	3	4	4	-20	7	1
COc1ccc(NC(=O)CC2SC(N3CCCCC3)=NC2=O)cc1OC (configuration not stated)	/	0	/	-2	2	-4	-4	/
COc1ccccc1Cn1nnc2c(=O)[nH]c(C3CCN(C(=O)c4ccccc4Cl)CC3)nc21	i	9	-8	0	-1	-28	/	-3
COc1ccc(CN2CCNC(=O)C2CC(=O)N(C)Cc2nccn2C)cc1OC (configuration not stated)	i	6	0	5	4	-8	-10	-2
COc1ccc(-c2cc(=Nc3ccc(C(=O)O)cc3)c3cc(C)ccc3o2)cc1	i	-32	-8	2	-1	10	-228	-1
COc1cccc(C2=Nn3c(nnc3-c3ccccc3O)SC2)c1	i	-9	11	4	-3	12	-72	0
COC(=O)Cn1c(=NC(=O)c2ccc(Cl)s2)sc2cc(C)ccc21	i	2	3	0	0	-18	-8	4
CC[C@]12c3[nH]c4ccc(OC)cc4c3CCN1C(=O)C(CC(=O)NCCc1ccccn1)C[C@@H]2C(=O)N1CCN(C(=O)c2ccco2)CC1 (some centres not stated)	/	3	/	2	6	/	19	/
NC(=NC1CCCCC1)c1ccc(Cl)cc1	i	/	-1	-3	0	3	7	4
C=CC1=C2C=C(C3CC3)N(CCCN(CC)CC)C=C2C(=O)C(C)(OC(=O)c2ccco2)C1=O (configuration not stated)	i	-22	/	0	8	13	-13	/
Fc1cccc(NCCc2c[nH]c3ccccc23)n1	i	-2	8	4	2	10	-61	12
Cc1ccc(NC(=O)C2(c3ccccc3)CC2(Cl)Cl)cc1C (configuration not stated)	i	4	-2	-12	-11	24	-37	-3
Cc1nc(SCC(=O)N2CCOCC2)c2ccsc2n1	i	-3	-5	-1	1	-6	/	4
COc1ccc(C(=O)CCc2ccccc2)c(O)c1	i	/	/	1	3	1	-39	/
O=c1c2cnn(-c3ccccc3)c2nc(-c2cccs2)n1-c1ccc(Cl)cc1	i	-10	20	-18	-29	12	/	4
CC(C)(C)c1cc(CN(CCO)CCO)c(O)c(C(C)(C)C)c1	i	-8	-6	27	19	41	19	0

New compounds follow
SMILES	Rce1 inh	UUG fidelity	eIF4H inh	MT1-MMP act inh	MT1-MMP act inh RFP	CSC inhib	Env fusion inh	PABP FP inh	others
COc1ccccc1N1C(=O)CC(N(O)c2ccccc2)C1=O (configuration not stated)	i	/	-2	-2	-1	-4	3	5
C[C@H](CO)N1C[C@H](C)[C@@H](CN(C)Cc2ccc(C(=O)O)cc2)Oc2c(cccc2N(C)C)C1=O	/	-8&-5	/	-1	4	-13	-9[16.7 µM]	/
COc1ccc(-c2nc3ccccc3c(=O)n2N)cc1	i	-7	7	-4	0	-2	-76	2
O=C(CSc1nc2ccccc2o1)N/N=C/c1ccc(C(=O)O)cc1	i	-7	-18	-4	0	-2	-52	-1
COc1ccccc1NC(=O)c1cc(=O)[nH]c2ccccc12	i	-7	9	0	3	-7	-5	10
COc1cccc(OC)c1OCCCN1CCOCC1	i	/	-6	-2	4	-6	/	8
CCN(Cc1cnn(C)c1)Cc1nc(Cc2ccccc2Cl)no1	i	/	-4	1	-4	-2	1	8
Nc1nc(-c2ccccc2)c(CCCNc2ccccc2)c(=O)[nH]1	/	-6	/	2	-7	/	28	/
CCN(CC)c1nc(N)c(C#N)c(CC#N)c1C#N	i	-20	/	5	6	-1	29	/
CC(=O)Nc1cc(S(=O)(=O)Nc2ccccc2C)c(C)cc1C	i	-7	-1	-10	-2	-1	/	-10
CC(=O)Nc1ccc(SCC(=O)O)cc1	i	-16	-4	-1	1	17	8	-6
COCCCn1c(SCC(=O)Nc2nnc(C)s2)nnc1-c1ccoc1C	i	4	6	7	4	-11	/	10
CC1CCc2c(C(=O)Nc3ccccn3)csc2C1 (configuration not stated)	i	/	-4	-3	0	-8	-31	20
O=S(=O)(c1ccc2ccccc2c1)n1cnc2ccccc21	i	-9	5	5	3	14	/	3
Cc1ccc(C(=O)O)cc1NC(=O)CCc1ccccc1	i	-19	-5	1	3	-3	-17	-8
CC/C(C)=C1\SC(N2CCN(C(C)=O)CC2)=NC1=O	i	-13	-11	1	4	-8	/	-5
COc1ccccc1CNC(=O)C(C)NS(=O)(=O)c1ccc(C)cc1 (configuration not stated)	i	-15	-4	-4	-5	11	12	-2
COc1ccc(-c2c3c(nc4sc(C(=O)Nc5cc(C)on5)c(N)c24)CCC3)cc1	i	-2	-10	-17	-7	-2	/	-3
CCC(C)c1ccccc1NC(=O)c1[nH]c(C)c(C(C)=O)c1C (configuration not stated)	i	-22	-14	-1	-6	-3	13	-3
COc1ccc(-c2sc3cc(OC)c(OC)cc3c2C#CC(C)(C)O)cc1	/	1	/	2	1	17	-4	/
CN1CCN(C(=O)c2cc3nc(-c4ccc(F)cc4)cc(C(F)(F)F)n3n2)CC1	i	-3	3	-15	-14	-9	/	2
COc1ccc(C(=O)Oc2cc(/C=N/NS(=O)(=O)c3ccc(C)cc3)ccc2OC)cc1	i	/	-13	-2	-8	-3	/	0
CCOC(=O)c1cc(-c2ccccc2)n(CC(=O)Nc2ccc(OC)cc2)c1C	i	-18	-2	3	5	-1	11	0
O=c1c2ccccc2ncn1CCCSc1ccccc1	i	-5	106*	1	-2	/	12	87*	eIF4H inh retest=78*;PABP FP inh retest=101*
CCCC(=O)Nc1nnc(-c2ccc(Cl)s2)o1	i	-14	1	0	5	-1	-6	4

Remaining list, next part.
SMILES	Rce1 inh	UUG fidelity	eIF4H inh	MT1-MMP act inh	MT1-MMP act inh RFP	CSC inhib	Env fusion inh	PABP FP inh	others
Cc1ccc(Cl)cc1NC(=O)COC(=O)c1ccccc1O	i	-12	-7	0	-3	12	-19	-8
C=CCOc1ccc2nnc(C)n2n1	i	/	2	-1	0	/	0	7
CC(C(=O)NC1CCCCC1)N1C(=O)c2cccc3cccc1c23 (configuration not stated)	i	-4	4	-2	-6	-1	15	-6
O=C(C1COc2ccccc2O1)N1CCN(c2nc3ccccc3s2)CC1 (configuration not stated)	i	8	-11	2	2	3	-11	5
S=C(Nc1ccccc1Cl)N1CCN(Cc2ccccc2)CC1	i	2	-9	2	2	-19	-1	48
CC1(C)CC(=O)c2cc(OCC(=O)N3CCN(c4ccccc4F)CC3)ccc2O1	i	-2	-6	-2	-1	-3	/	2
COc1ccc(NC(=O)C2CCC2)cc1S(=O)(=O)N1CCOCC1	/	-19	/	3	1	/	-4	/
Cc1ccc(NC(=S)NC2CCCC2)cc1	i	-25	4	2	4	12	/	-3
